WNV protease inh: WNV NS2B-NS3 proteinase inhibition; P06935; WNV NS2B-NS3 protease, fluorogenic substrate Ex360/Em465; stronger effect = lower value; z-score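 (tested at a level between 10 and 100 µM)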; actives 0.18% (n = 65,000); AID 577;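 active = z-score at -3 or under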;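 note: score is relative to mean and spread of the compound wells of a plate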
Target sequence (P06935 1371-1501 limits assumed): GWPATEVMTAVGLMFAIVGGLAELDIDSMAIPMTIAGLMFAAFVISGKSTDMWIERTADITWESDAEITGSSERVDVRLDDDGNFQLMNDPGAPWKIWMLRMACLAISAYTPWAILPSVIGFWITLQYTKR
Target sequence (P06935 1502-1679 limits assumed): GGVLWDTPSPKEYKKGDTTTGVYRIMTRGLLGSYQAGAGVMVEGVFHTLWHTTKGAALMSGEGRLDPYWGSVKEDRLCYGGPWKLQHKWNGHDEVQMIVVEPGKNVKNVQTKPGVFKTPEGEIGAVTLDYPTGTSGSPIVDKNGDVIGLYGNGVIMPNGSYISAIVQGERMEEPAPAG
MT1-MMP promoter: MT1-MMP gene expression reporter suppression – cell-based, luciferase reporter, luminescence (AID 618). MT1-MMP promoter luciferase reporter cells, luminescence. calls from a first round at 10 µM; hits with a dose series show EC50 in µM. actives 0.62% (n = 87,000);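 active = over half of the reporter light lost at 10 µM or EC50 under 50 µM; inactive = the rest and hits that failed the dose series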;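 note: actives suppress MT1-MMP promoter-driven transcription so potencies describe inhibitors; HT1080 fibrosarcoma cells; overnight exposure; toxic or luciferase-blocking compounds were not removed from the actives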
Hsc70: Hsc70 inhibitors, probe displacement, primary screen, biochemical, fluorescence polarization (AID 568). 83,000 tested, under 10 active. Hsc70 fluorescence polarization, probe displacement; higher % means a stronger effect; strong numbers were not always called active. displacement, % at 20 µM, or IC50 in µM where a hit was titrated;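 active = displacement above 50% without optical interference and an IC50 on retest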;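 note: ATPase domain with a fluorescein-tagged ATP probe; 0% = vehicle and 100% = excess ADP; read after one hour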
An asterisk follows results filed as active; i = inactive; · = no result given; + = active, no number.

SMILES | WNV protease inh | MT1-MMP promoter | Hsc70
O=C(Cn1cnc2c(nnn2Cc2ccccc2F)c1=O)NCC1CCCO1 (stereo not given) | 0.84 | i | -5.6%
O=C(OCc1nnc(-c2ccccc2)o1)c1ccc2ccccc2n1 | 0.64 | i | -0.6%
COc1cc(C(=O)Nc2ccc3c(c2)OCO3)ccc1-n1cnnn1 | -1.35 | i | -1.6%
Cc1cc(Br)ccc1OCc1nc(-c2cccnc2)no1 | 1.86 | i | 2.2%
Cc1noc(C)c1CSc1nnc(-c2ccccc2)n1Cc1ccco1 | -0.78 | i | 5.5%
COc1cccc(N2CCN(Cc3coc4c(Cl)cc(Cl)cc4c3=O)CC2)c1 | -0.82 | i | 1.8%
CCCCN(C)C(=O)CCCCn1c(=O)[nH]c2cc(OCC)c(OCC)cc2c1=O | -1.09 | i | 1.7%
O=C(O)CN(CC(=O)O)CC(=O)O | · | i | 3.0%
Cc1ccc2c(c1)c1c3n2CCCNC3CCC1 (stereo not given) | 1.27 | i | -0.2%
COc1ccccc1NC(=O)CSc1nc2ccccc2c(=O)n1CCNC(C)=O | -1.3 | i | -4.3%
COc1cc2cc(CN(CCN3CCCC3)C(=O)Nc3ccccc3Cl)c(=O)[nH]c2cc1OC | -0.00654 | i | -8.4%
O=C(Oc1cccc2cccnc12)c1cccs1 | 1.02 | i | -3.0%
COc1cccc(-c2nnn(CCC(=O)O)n2)c1 | -1.16 | i | 2.9%
O=C(CSc1nnc(COc2ccc(Cl)cc2)o1)N1CCN(c2ccccc2)CC1 | 0.36 | i | 3.9%
O=C(CSc1ncn(-c2ccccc2)n1)N1CCc2ccccc21 | -0.67 | i | 6.9%
O=C(c1ccccc1)N1CCC(O)(c2ccc3c(c2)OCO3)CC1 | · | i | 8.2%
CC(=O)Nc1ccc(NC(C)=O)s1 | -0.54 | i | -1.8%
Cc1cc(C)n(-c2ccc(C(=O)Nc3ccc4c(c3)OCO4)cc2)n1 | · | i | 0.5%
CC1CCCCC1NC(=O)Cn1ncc2ccccc21 (stereo not given) | 0.56 | i | -0.3%
Nc1nc(-c2cccc(NS(=O)(=O)c3ccccc3)c2)cs1 | 0.17 | i | -3.3%
CCc1nnc(NCC(=O)N2CCc3ccccc32)s1 | -0.64 | i | -5.5%
CC1CCc2c(nc3ncnn3c2N2CCN(c3ccccc3F)CC2)C1 (stereo not given) | 0.06 | i | -4.9%
CCN(CC)CCN1C(=O)C(=O)/C(=C(/O)c2ccc(C)cc2)C1c1cccnc1 (stereo not given) | 0.68 | i | -4.3%
COc1cc(C(Nc2ccccn2)c2ccc3ccc(C)nc3c2O)cc(OC)c1O (stereo not given) | 0.5 | i | 6.3%
Fc1ccc(Cn2nnnc2CN2CCN(C3CCCCC3)CC2)cc1 | -0.07 | i | 5.9%
CC(=O)c1c(C)[nH]c(C(=O)NCCN2CCC(C)CC2)c1C | -0.48 | i | 4.0%
CCc1ccc(OCc2ccc(C(=O)NCc3ccccn3)o2)cc1 | 1.68 | i | -2.0%
O=C(CC(C(=O)N1CCc2ccccc21)n1ccnc1)N1CCc2ccccc2C1 (stereo not given) | -0.93 | i | 11.2%
Cn1c(=O)c2c(nc(CN3CCN(CCO)CC3)n2Cc2ccccc2Cl)n(C)c1=O | 2.43 | i | 1.5%
O=C(O)c1ccc(-c2ccc(O)c(F)c2)cc1 | 0.74 | i | 4.1%

4 compounds from above, limited to MT1-MMP promoter and WNV protease inh:
molecule	MT1-MMP promoter	WNV protease inh
COc1cc(C(Nc2ccccn2)c2ccc3ccc(C)nc3c2O)cc(OC)c1O (stereo not given)	i	0.5
Fc1ccc(Cn2nnnc2CN2CCN(C3CCCCC3)CC2)cc1	i	-0.07
CC(=O)c1c(C)[nH]c(C(=O)NCCN2CCC(C)CC2)c1C	i	-0.48
CCc1ccc(OCc2ccc(C(=O)NCc3ccccn3)o2)cc1	i	1.68

Next section:
SMILES | WNV protease inh | MT1-MMP promoter | Hsc70
Cc1ccc(CNC(=O)CCS(=O)(=O)c2cccc3nonc23)cc1 | 1.82 | i | 2.1%
c1ccc2nc3c(nc2c1)[nH]c1ccccc13 | -1.48 | i | 0.8%
Cc1cccc(NS(=O)(=O)c2cccc3nsnc23)c1 | · | i | 3.6%
Cc1nc2ccccc2c(=O)n1/N=C/c1ccc(N(C)C)cc1 | -0.25 | i | 2.2%
CSc1cccc(NC(=O)c2c(Cl)cnn2C)c1 | 0.14 | i | 0.9%
Cc1cc(C)cc(-n2cc3c(=O)n(C)c(=O)n(C)c3c2)c1 | -1.13 | i | 0.5%
CC12CCC(=O)N1C(C(=O)OCC(=O)Nc1sccc1C#N)CS2 (stereo not given) | -0.76 | i | 12.0%
CCOC(=O)CSc1nc(N)c(C#N)c(-c2ccc(OCC)cc2)c1C#N | -0.61 | i | -7.9%
Cc1nn(Cc2ccccc2)c(C)c1NC(=O)CSc1nnc(-c2cc(Cl)ccc2O)n1C | 0.57 | i | 5.1%
CN1CCN(/C=N/c2c(C#N)cnn2-c2ccccc2)CC1 | 1.04 | i | -7.2%
CCN(CC)c1c2c(c(C#N)c3nc4ccccc4n13)CCC2 | · | i | 1.7%
COc1ccc(CCN(C)C(=O)CN2C(=O)c3ccccc3S2(=O)=O)cc1OC | 1.43 | i | 2.2%
CCOC(=O)N1CCC(NC(=O)CS(=O)(=O)Cc2nc(-c3cccc(OC)c3)oc2C)CC1 | 1.03 | i | -8.7%
CCn1nc(C)c(NC(=O)c2cc(Br)ccc2Cl)c1C | 0.01 | i | 5.0%
c1ccc2c(c1)ncn2CCC1CCCCC1 | -0.67 | i | -1.0%

Quoted at random: 4 compounds from above.
SMILES | WNV protease inh | MT1-MMP promoter | Hsc70
COc1cc2cc(CN(CCN3CCCC3)C(=O)Nc3ccccc3Cl)c(=O)[nH]c2cc1OC | -0.00654 | i | -8.4%
CCN(CC)c1c2c(c(C#N)c3nc4ccccc4n13)CCC2 | · | i | 1.7%
Cc1nn(Cc2ccccc2)c(C)c1NC(=O)CSc1nnc(-c2cc(Cl)ccc2O)n1C | 0.57 | i | 5.1%
c1ccc2nc3c(nc2c1)[nH]c1ccccc13 | -1.48 | i | 0.8%

More entries follow:
SMILES | WNV protease inh | MT1-MMP promoter | Hsc70
CCCCc1nc(NCCN2CCOCC2)c(C#N)c2c1COC(C)(C)C2 | -0.22 | i | 2.6%
Cc1nc2ccc(NC(=O)N3CCSCC3)cc2s1 | 0.25 | i | 2.5%
CS(=O)(=O)N(CC(=O)N1CCc2ccccc2C1)Cc1ccc(Cl)cc1 | · | i | -2.2%
CCN1CCN(/C=N/c2nc3c(s2)CCCC3)CC1 | 0.93 | + | -0.3%
CCOC(=O)CC(=O)Nc1ccc(C(=O)OCC)cc1 | -0.1 | i | 5.7%
CC1CCN(C(=O)c2ccc(NC(=O)C3CCCO3)cc2)CC1 (stereo not given) | 0.79 | i | -2.3%
Cc1nc2sc(C(c3ccccc3)N3CCN(C)CC3)c(O)n2n1 (stereo not given) | -0.59 | i | -6.0%
COc1ccc(Cl)cc1C(=O)N1CCN(c2ccccn2)CC1 | · | i | -1.5%
Cc1cc(OCCOc2cccc3cccnc23)cc(C)c1Cl | · | i | -2.3%
c1ccc(CCn2nnnc2C(c2cccs2)N2CCOCC2)cc1 (stereo not given) | 0.41 | i | 0.8%
Cc1ccc(C)c(C2=CSC3=NS(=O)(=O)CCN23)c1 | · | i | 1.5%
CC(C)COP(=O)(c1ccc(N(C)C)cc1)C(O)c1ccccc1F (stereo not given) | 0.36 | i | -7.9%
Cc1ccc(N=C2NC(=O)CS2)cc1 | · | i | -2.4%
COc1ccc2c(c1)c1nc(SCC(C)C)n(CCO)c(=O)c1n2C | 0.04 | i | 0.5%
N#Cc1c(SCC(=O)N2CCOCC2)nsc1SCC(=O)N1CCOCC1 | -0.13 | i | 1.1%

In the list so far, these contain an NH in an aromatic ring.
SMILES | WNV protease inh | MT1-MMP promoter | Hsc70
CCCCN(C)C(=O)CCCCn1c(=O)[nH]c2cc(OCC)c(OCC)cc2c1=O | -1.09 | i | 1.7%
COc1cc2cc(CN(CCN3CCCC3)C(=O)Nc3ccccc3Cl)c(=O)[nH]c2cc1OC | -0.00654 | i | -8.4%
CC(=O)c1c(C)[nH]c(C(=O)NCCN2CCC(C)CC2)c1C | -0.48 | i | 4.0%
c1ccc2nc3c(nc2c1)[nH]c1ccccc13 | -1.48 | i | 0.8%

Additional compounds:
SMILES | WNV protease inh | MT1-MMP promoter | Hsc70
CC(Sc1nnnn1C)C(=O)Nc1ccccc1-c1ccccc1 (stereo not given) | -0.41 | i | -2.6%
N/C(=N\S(=O)(=O)c1cccs1)c1ccccc1 | 0.4 | i | 4.2%
Cc1nn(C(=O)c2c([N+](=O)[O-])cnn2C)c(C)c1Cl | · | i | 2.7%
Cc1ccc2c(c1)nnn2C1CCN(C(=O)C23CC4CC(CC(C4)C2)C3)CC1 | · | i | 5.3%
COc1ccc2c3c(cccc13)OCC2=O | 0.62 | i | 7.8%
Cc1cc(C)n(-c2nc3c(c(=O)[nH]c(=O)n3C)n2C(C)C)n1 | 0.62 | i | 0.2%
COc1cccc(NC(=O)c2cn(C)c(=O)c3cc(OC)c(OC)cc23)c1 | 1.6 | i | -2.3%
O=S(=O)(NCc1cccs1)c1cccc2cccnc12 | 0.65 | i | -6.8%
COc1ccc(OCCSc2nnc(-c3ccccc3)n2N)cc1 | 1.91 | i | 4.1%
CCN(CC)C(=O)c1c[nH]c2ccc(S(=O)(=O)Nc3cc(C)cc(C)c3)cc2c1=O | -1.93 | i | -3.0%
Cc1ccc(CSc2nnc(-c3ccncc3)n2C)cc1 | · | i | 3.7%
CC(=O)c1ccc(NC(=S)NC(NC(=O)c2ccco2)C(Cl)(Cl)Cl)cc1 (stereo not given) | · | i | 0.3%
COc1ccc(NC2C=CS(=O)(=O)C2)c(OC)c1 (stereo not given) | -1.32 | i | -4.1%
Cc1ccc(C(=O)NC(Cc2c[nH]c3ccccc23)C(=O)O)cc1 (stereo not given) | · | i | -0.5%
COc1cccc2cc(C(=O)N3CCc4ccccc43)c(=O)oc12 | -0.1 | i | 2.0%
COc1ccc(C2C(C(N)=O)=C(C)Nc3nc(-c4ccccc4)nn32)cc1OC (stereo not given) | 0.25 | i | 3.8%
Cc1ccc(NC(=O)COS(=O)c2ccc(C)cc2)cc1 (stereo not given) | 0.25 | i | -4.0%
CN1CCN(C(=O)c2ccc3c(=O)n4c(nc3c2)CCCCC4)CC1 | · | i | 1.6%
c1ccc(CC2CCN(c3nnnn3-c3ccccc3)CC2)cc1 | -1.31 | i | 11.0%
CC1N/C(=C\C(=O)c2ccccc2)N(O)C1(C)C (stereo not given) | 0.91 | i | -2.6%
N#Cc1nc(-c2cccc3ccccc23)oc1NCCN1CCOCC1 | 1.36 | i | 3.0%
O=C(NCc1ccc(Cl)cc1)c1noc2c1CCCC2 | -0.35 | i | 0.8%
COc1ccc2c(c1OC)C(=O)N1c3cccc(Cl)c3C(=O)OC21 (stereo not given) | 0.65 | i | 1.4%
CCOC(=O)N1CCN(C(=O)c2ccc(CNS(=O)(=O)c3ccc(OC)cc3)cc2)CC1 | 1.22 | i | 1.5%
O=C(CC1CCCCC1)NCCCN1CCOCC1 | -0.74 | i | 2.9%
CCOc1ccc(NC(=O)COc2nsnc2N2CCCCC2)cc1 | 0.35 | i | -10.2%
CCCCn1nnnc1NCc1ccc(N(CC)CC)cc1 | · | i | -0.7%
CCOCC(=O)Nc1ccc(S(=O)(=O)Nc2ncccn2)cc1 | -0.71 | i | -1.8%
CCCCCn1ccc(=N)cc1 | -0.23 | i | -2.7%
Cc1c(C(=O)Nc2ccc3c(c2)OCO3)sc2nc(-c3ccccc3)cn12 | -0.6 | i | 5.4%
c1ccc(CCn2nnnc2CN2CCCc3ccccc32)cc1 | -0.36 | i | 35.4%
CCOc1ccc2[nH]c(=O)c(CN(Cc3nnnn3Cc3ccco3)C3CCCCC3)cc2c1 | -0.27 | i | 1.2%
CCOC(=O)COc1ccc(S(=O)(=O)N2CCN(C(=O)OCC)CC2)cc1 | -0.33 | i | 8.9%
CCOc1cc(S(=O)(=O)NCc2cccs2)ccc1Cl | 0.16 | i | 1.8%
O=C(COC(=O)c1ccccn1)Nc1cccc(Cl)c1Cl | 0.18 | i | 1.0%
O=C(COC(=O)CCNS(=O)(=O)c1ccc2c(c1)OCCO2)NC1CCCc2ccccc21 (stereo not given) | -1.11 | i | -4.8%
COc1ccc(-c2nn(C)c(=O)c3ccccc23)cc1NC(=O)Cn1nc(C)c2ccccc2c1=O | 1.08 | i | -2.1%
CCOC(=O)c1ccc(Nc2cc(C)nc(N3CCOCC3)n2)cc1 | -0.05 | i | -0.5%
COc1cc(C2NC(=O)C(C#N)=C(S)N2c2ccc(C)cc2)ccc1OC(C)C (stereo not given) | · | i | 3.6%
NC(=O)Cc1cn(-c2ncc(C(F)(F)F)cc2Cl)c2ccccc12 | · | i | 4.4%
CN(C1CCCCC1)S(=O)(=O)c1ccc(NC(=O)c2ccc(Br)o2)cc1 | -1.26 | i | -9.5%
Nc1nc(NC(=O)c2ccco2)nn1-c1ccccc1 | -0.58 | i | -2.7%
CCOC(=O)Nc1ccc2c(c1)N(C(=O)CCN1CCOCC1)c1ccccc1S2=O (stereo not given) | -1.07 | i | -12.0%
COc1ccc(CCNC(=O)c2cc3c(=O)n4cccc(C)c4nc3n(Cc3ccncc3)c2=N)cc1 | 1.65 | i | 0.8%
O=C(CN1C(=O)COc2ccccc21)N1CCCc2ccccc21 | -1.07 | i | -1.6%
O=C(c1cc2ncc(Br)cn2n1)N1CCN(C(=O)c2ccco2)CC1 | -0.06 | i | 0.3%
COC(=O)C1=C(C)N=C2SC(C)C(=O)N2C1c1cccs1 (stereo not given) | -0.37 | i | -7.2%
Cc1ccc(CN2CCN(/N=C/c3ccco3)CC2)c(C)c1 | · | i | -5.4%

Compound activity (PubChem BioAssay)
